Ecoli rRNA inh = selective bacterial rRNA inhibition in E. coli; E. coli WT GFP vs humanized-ribosome RFP mutants, fluorescence, 24 h; hits give low values; DMSO median 0, no signal -100; GFP signal change (wild-type ribosome), % (no concentration beside the values); 1.6% of 350,000 active; AID 720706;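 active = significant combined selectivity score with lowered wild-type GFP, culture density cut under 30%, mutant RFP and density less affected; inactive = any of these conditions unmet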; also: one replicate is shown; some compounds called inactive have numbers as strong as hits
AF4-AF9 inh = blocks AF4 peptide binding to human AF9. inhibition, % at 10 µM. P42568. AlphaScreen, biotin-AF4 peptide binding to FLAG-AF9. 0.47% of 350,000 active;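 active = every replicate reaching a set inhibition limit, whatever the replicate mean, cut at about 25% in these data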;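 also: 0% = plate neutral control median and 100% = total signal loss; the record names both 10 and 1 µM as test concentration; the first replicate is given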
Target sequence (P42568 whole entry, looked up): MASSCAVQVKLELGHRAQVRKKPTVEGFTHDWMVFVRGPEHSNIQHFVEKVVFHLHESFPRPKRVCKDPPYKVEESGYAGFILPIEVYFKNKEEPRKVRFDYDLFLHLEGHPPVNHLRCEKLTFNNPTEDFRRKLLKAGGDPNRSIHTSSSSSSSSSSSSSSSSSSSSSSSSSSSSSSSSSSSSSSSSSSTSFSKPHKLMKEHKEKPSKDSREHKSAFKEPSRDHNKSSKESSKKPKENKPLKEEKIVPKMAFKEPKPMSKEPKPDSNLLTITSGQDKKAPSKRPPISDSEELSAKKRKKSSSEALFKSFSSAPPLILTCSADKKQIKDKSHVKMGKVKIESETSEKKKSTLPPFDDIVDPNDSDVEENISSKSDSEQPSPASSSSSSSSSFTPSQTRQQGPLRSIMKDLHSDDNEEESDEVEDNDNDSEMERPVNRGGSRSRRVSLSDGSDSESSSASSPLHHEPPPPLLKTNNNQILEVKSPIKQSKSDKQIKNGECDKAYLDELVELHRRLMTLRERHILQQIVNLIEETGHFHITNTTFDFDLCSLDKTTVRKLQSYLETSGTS
FGF22 binding = shifts melting point of recombinant human FGF22. AID 651658. recombinant FGF22 thermal shift, SYPRO orange fluorescence; percent of sucrose octasulfate shift, DMSO zero. 1.5% of 340,000 active. calls only at 9.99 µM. Q9HCT0;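 active = melting point raised past a set limit in the mean and every replicate; three in four hits are not shown here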
Target sequence (Q9HCT0 whole entry, looked up): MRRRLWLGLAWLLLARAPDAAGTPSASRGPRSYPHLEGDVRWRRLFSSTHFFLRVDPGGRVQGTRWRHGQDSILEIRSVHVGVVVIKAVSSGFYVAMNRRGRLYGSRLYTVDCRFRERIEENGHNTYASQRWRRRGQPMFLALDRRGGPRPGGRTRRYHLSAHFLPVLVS
Ecoli rRNA inh OD600 = also measured in Ecoli rRNA inh; calls as there; OD600 change, %; measured here: OD600 growth;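 optical density of the mix in the first replicate; 0 = DMSO median and -100 = no signal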
Ecoli rRNA inh RFP = further read-out of Ecoli rRNA inh, marked with its call; RFP signal change, %; measured here: RFP humanized mutant strains;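 first replicate; 0 = DMSO median and -100 = no signal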
Active calls of the source: *; i = inactive; & = joins results of further samples. The list is partial; the hit share may differ from the screen's.

Ecoli rRNA inh	molecule	Ecoli rRNA inh OD600	Ecoli rRNA inh RFP	AF4-AF9 inh	FGF22 binding
1	FC(F)(F)c1ccccc1Cc1c(-c2cccc(Cl)c2)nc2ccc(Cl)cn12	6	-2.7	-0.2	i
-8	C[C@H]1CN([C@@H](C)CO)S(=O)(=O)c2ccc(-c3ccccc3)cc2O[C@@H]1CN(C)S(C)(=O)=O	-18	2.3	4.2	i
0	CNC[C@H]1Oc2ccc(NC(=O)Nc3ccc(F)cc3)cc2C(=O)N([C@H](C)CO)C[C@@H]1C	5	-1.6	0.3	i
2	CC=Cc1ccc2n(c1=O)C[C@@H]1[C@@H](CO)[C@H](C(=O)NCc3ccc(F)cc3)[C@H]2N1S(C)(=O)=O (mixture of isomers)	6	1.9	-0.1	i
-3	COc1cccc(NC(=O)N[C@H]2CC[C@H](CC(=O)N3CCN(C)CC3)O[C@@H]2CO)c1	-6	-1.5	-0.2	i
-8	CC(=O)Nc1ccc(S(=O)(=O)c2ccnc3cc(Cl)ccc23)cc1	-29	-2.9	-2.2	i
-7	COc1ccccc1C#Cc1ccc2c(c1)O[C@H](CN(C)C(C)=O)[C@@H](C)CN([C@H](C)CO)S2(=O)=O	-16	0.2	-1.2	i
3	CCC(=O)N1[C@@H](CO)[C@H](c2ccccc2)[C@@H]1CN(C(C)C)S(C)(=O)=O	7	-5.2	-0.1	i
-3	Cc1ccccc1-c1ccccc1[C@@H]1[C@@H](C#N)N(C(=O)c2cccc(F)c2)[C@H]1CO	-31	-2.5	-1.7	i
4&3	C[C@H]1CN([C@@H](C)CO)C(=O)CCCn2cc(nn2)CO[C@@H]1CN(C)C(=O)Nc1ccc2c(c1)OCO2	12&-2	-1.1&-0.1	1.2&-3.0	i
-6	C[C@H](CO)N1C[C@H](C)[C@H](CN(C)S(=O)(=O)c2ccccc2F)OCc2ccccc2-c2c(n(C)c3ccccc23)C1=O	-6	-1.8	2.4	i
0	CN1C(=O)c2cc(NS(=O)(=O)c3cccc(F)c3)ccc2OC[C@@H]2O[C@@H](CC(=O)O)CC[C@H]21	3	0.2	-1.3	i
0	COCC(=O)N1CC2(C1)[C@@H](c1ccc(-c3ccccc3)cc1)[C@@H](CO)N2C(C)=O	-5	0.9	1.1	i
10	CCCCCCCCN1C(=O)[C@@H](CC(=O)N2CCCCC2)C[C@@]2(C(=O)OC)C1=C[C@H](C1CCCC1)O[C@@H]2C	10	-0.2	-1.6	i
4	CNC[C@H]1Oc2ccc(NC(=O)C3CCCCC3)cc2C(=O)N([C@@H](C)CO)C[C@@H]1C	6	-3.0	-3.3	i
8	CCCNC(=O)c1cc(C2CCCCN2C(=O)OCC(C)C)on1 (centres undefined)	18	5.0	-0.1	i
-2	COc1ccc(NC(=O)Nc2ccc3c(c2)C(=O)N([C@@H](C)CO)C[C@@H](C)[C@H](CN(C)Cc2ccc(C(F)(F)F)cc2)OCCCC[C@@H](C)O3)cc1	1	5.9	-1.8	i
1	CC(C)NC(=O)Nc1ccc2c(c1)C(=O)N([C@@H](C)CO)C[C@H](C)[C@@H](CN(C)Cc1ccccc1)OCCCC[C@H](C)O2	0	-0.9	-4.8	i
4	C[C@H]1CN([C@@H](C)CO)C(=O)c2cccc(NC(=O)Nc3ccc(F)cc3)c2O[C@@H]1CN(C)C(=O)Nc1ccccc1	11	0.6	-1.4	i
8&1	C[C@H]1CN([C@@H](C)CO)C(=O)CCCn2nncc2CO[C@@H]1CN(C)C(=O)c1ccc(N2CCN(C)CC2)cc1	12&-3	-4.8&0.7	2.2&-2.7	i
0	C[C@@H]1CN([C@@H](C)CO)C(=O)c2ccccc2-c2ccccc2CO[C@@H]1CN(C)Cc1cccc(F)c1	-20	-0.6	-9.7	i
2	COc1ccc(NC(=O)Nc2cccc3c2O[C@H](CN(C)C(=O)Nc2c(C)noc2C)[C@H](C)CN([C@H](C)CO)C3=O)cc1	-1	-1.4	-1.0	i
-2	C[C@H]1CN([C@@H](C)CO)S(=O)(=O)c2ccc(/C=C/c3ccccc3)cc2O[C@@H]1CN(C)C(=O)NC1CCCC1	-9	2.9	8.2	i
-3	COc1cc(CN2CCC(C(=O)NC(c3ccc(F)cc3)c3ncccc3C)CC2)cc(OC)c1 (centres undefined)	-5	-0.7	7.5	i
-5	C[C@@H]1CCCCO[C@H](CN(C)S(=O)(=O)c2cn(C)cn2)[C@H](C)CN([C@@H](C)CO)C(=O)c2cc(NS(=O)(=O)c3ccc(Cl)cc3)ccc2O1	-2	-1.4	-11	i
5	COc1cccc(C2=CC(=O)CC(C)(C)C2=O)c1	8	0.0	-2.4	i
4	CC(C)NC(=O)N1[C@H](C#N)[C@H](c2ccc(C#CC3CCCC3)cc2)[C@H]1CO	5	-1.4	-21	i
-2	O=C(C[C@@H]1CC[C@@H]2[C@H](COC[C@@H](O)CN2C(=O)c2ccccc2F)O1)NCc1ccc(Cl)cc1	-2	16	1.5	i
1	CCCNC(=O)N1[C@H](C#N)[C@@H](c2ccc(-c3ccc(C(=O)N(C)C)cc3)cc2)[C@@H]1CO	11	0.4	-0.1	i
4	C[C@H](CO)N1C[C@H](C)[C@H](CN(C)C)Oc2cc(C#CCN(C)C)ccc2S1(=O)=O	13	-1.2	0.2	i
0	COCC(=O)N1C[C@@H](C)[C@@H](OC)CN(C)C(=O)c2ccc(NS(C)(=O)=O)cc2OC[C@@H]1C	3	-0.4	-1.5	i
2	CCOC(=O)C1=C[C@@H](C(C)C)N(S(=O)(=O)c2ccc([N+](=O)[O-])cc2)[C@H]1c1ccccc1	-7	-8.0	5.4	i
0	C[C@H](CO)N1C[C@H](C)[C@@H](CN(C)Cc2ccc(C(=O)Nc3ccccc3N)cc2)Oc2c(NC(=O)C3CC3)cccc2C1=O	-3	-0.5	3.4	i
0	CC(C)NC(=O)Nc1ccc2c(c1)C(=O)N([C@@H](C)CO)C[C@@H](C)[C@H](CN(C)Cc1ccc3c(c1)OCO3)O2	2	-0.4	-0.3	i
-5	C[C@H]1CN([C@@H](C)CO)C(=O)Cc2cc(NS(C)(=O)=O)ccc2O[C@H]1CN(C)Cc1ccc(Cl)c(Cl)c1	-25	3.7	1.1	i
9	O=C(OCC(=O)N1CCCCCC1)c1cc(S(=O)(=O)N2CCOCC2)ccc1F	2	0.1	-3.5	i
-1	COc1ncccc1C(=O)Nc1c(-c2ccccc2)[nH][nH]c1=O	-2	-2.9	-1.9	i
0	CO[C@@H]1CC[C@H]2CCOc3ccc(C#N)cc3C(=O)N(C)[C@H](C)C(=O)N(C)C[C@@H]1O2	-9	-2.3	1.4	i
1	Cc1cccc(S(=O)(=O)N[C@H]2CC[C@H](CCNC(=O)CCN3CCCCC3)O[C@H]2CO)c1	-3	-2.6	-1.4	i
1	CCC(=O)Nc1ccc2c(c1)OC[C@H](C)N(C(=O)CN1CCOCC1)C[C@@H](C)[C@H](OC)CN(C)C2=O	1	-1.4	-0.5	i
3	CN(C)CCCNC(=O)C[C@H]1CC[C@@H](NS(=O)(=O)c2ccc(F)cc2)[C@@H](CO)O1	1	2.5	-1.5	i
7	CCOC(=O)N1C(=O)NC(=O)C1c1ccccc1 (centres undefined)	8	0.5	1.3	i
-4	C[C@H]1CCCCO[C@H](CN(C)C(=O)CCC(F)(F)F)[C@@H](C)CN([C@@H](C)CO)C(=O)c2cc(NC(=O)Nc3ccccc3)ccc2O1	-11	3.4	0.1	i
-3	C[C@H](CO)N1C[C@H](C)[C@@H](CN(C)C(=O)Nc2ccccc2F)Oc2cc(C#CCN(C)C)ccc2S1(=O)=O	11	-1.0	2.5	i
-2	Cn1cnc(S(=O)(=O)N[C@H]2CC[C@H](CC(=O)NCC3CCCCC3)O[C@H]2CO)c1	4	-1.8	-2.0	i
0	O=C(N[C@@H]1CC[C@@H](CCNS(=O)(=O)Cc2ccccc2)O[C@@H]1CO)c1cnccn1	11	-0.2	-17	i
2	Cc1ccccc1-c1ccc([C@@H]2[C@@H](CO)N3C(=O)CN(C(=O)c4ccncc4)C[C@H]23)cc1	9	-1.3	-0.1	i
-14	OC[C@H]1O[C@@H](c2nc3ccc(-c4nc(-c5cccs5)no4)cc3[nH]2)C[C@@H]1O	-10	-0.3	0.5	i
2	C[C@H]1CN([C@@H](C)CO)C(=O)c2cc(NC(=O)Nc3cccc4ccccc34)ccc2O[C@@H]1CN(C)C(=O)Nc1ccc(F)cc1	0	-1.6	-1.6	i
6	O=C(C[C@@H]1C=C[C@@H](NS(=O)(=O)c2ccc(F)cc2)[C@H](CO)O1)NC1CCC1	-2	-2.8	-2.7	i
5	C[C@@H]1CN([C@@H](C)CO)S(=O)(=O)c2ccc(-c3cncnc3)cc2O[C@H]1CN(C)C(=O)Cc1ccncc1	-3	-1.3	-0.1	i
-7	CO[C@@H]1CN(C)C(=O)c2ccc(NC(=O)Nc3ccc(F)cc3)cc2OC[C@@H](C)N(C(=O)c2cnccn2)C[C@H]1C	-2	3.2	2.4	i
5	OC[C@@H]1CN(Cc2cccs2)C[C@H](n2cnc3c(N4CCOCC4)ncnc32)O1	8	0.0	-1.0	i
4	CCc1nc2c(OCC(=O)C(C)(C)C)cccn2c1N(C=O)CC(=O)N(C)C	3	-2.8	-4.4	i
-7	CC(=O)NC(c1cccc(F)c1)c1nc(-c2cccc(C(=O)O)c2)cs1 (centres undefined)	-14	-2.9	-0.5	i
4	Cc1noc(C)c1S(=O)(=O)Nc1ccc2c(c1)C(=O)N([C@@H](C)CO)C[C@H](C)[C@@H](CN(C)Cc1ccncc1)O2	5	-1.7	-2.4	i

(next part)
Ecoli rRNA inh	molecule	Ecoli rRNA inh OD600	Ecoli rRNA inh RFP	AF4-AF9 inh	FGF22 binding
-58	COc1ccc2c3c([nH]c2c1)[C@@H](CO)N(C(=O)C1CCC1)CC31CN(Cc2cccc(F)c2)C1	-75	-16	13	i
-6	C[C@@H]1CN([C@H](C)CO)C(=O)c2cc(NC(=O)CCC(F)(F)F)ccc2O[C@H]1CN(C)Cc1ccncc1	6	0.9	-1.8	i
1	C[C@H]1CN([C@@H](C)CO)C(=O)Cc2cc(NC(=O)Cc3ccccc3)ccc2O[C@H]1CN(C)Cc1ccc(C(=O)O)cc1	12	-0.4	-3.3	i
3	C[C@H]1CCCCO[C@H](CN(C)C(=O)Nc2ccc(C(F)(F)F)cc2)[C@@H](C)CN([C@@H](C)CO)C(=O)c2cc(NC(=O)Nc3ccc(F)cc3)ccc2O1	2	1.1	1.1	i
-14	CCCNC(=O)N1[C@H](CO)[C@H](c2ccc(-c3ccccc3F)cc2)[C@@H]1C#N	-35	-4.7	-1.4	i
2	COCC(=O)N(C)C[C@H]1Oc2ncc(-c3ccccc3F)cc2C(=O)N([C@H](C)CO)C[C@H]1C	7	-1.1	-3.1	i
0	COc1ccc2c3c(n(C)c2c1)[C@H](CO)N(C(=O)c1ccccc1)CC31CCN(C(C)=O)CC1	8	1.2	-0.6	i
1&11	O=C(N[C@H]1CC[C@@H](CCNS(=O)(=O)c2ccccc2Cl)O[C@@H]1CO)c1ccccc1	-2&8	0.0&5.5	-1.7&-2.1	i
10	Cc1cc(C(=O)N2CCC2(C)C(=O)NS(=O)(=O)c2ccc(Cl)cc2)nn1C (centres undefined)	16	1.2	-1.6	i
-2	N#C[C@@H]1N[C@@H](CO)[C@H]1c1ccc(-c2cccc(F)c2)cc1	-3	1.6	-3.5	i
1	COC(=O)[C@]12CCCCC=C1N(Cc1ccccc1)C(=O)[C@H](CC(=O)NCc1cccc(C(F)(F)F)c1)C2	2	2.3	1.3	i
4	CC(C)NC(=O)N(C)C[C@@H]1Oc2ccc(NC(=O)c3ccncc3)cc2CC(=O)N([C@H](C)CO)C[C@H]1C	3	-0.2	-1.2	i

Among those listed so far, 9 have an aryl methoxy group:
Ecoli rRNA inh	molecule	Ecoli rRNA inh OD600	Ecoli rRNA inh RFP	AF4-AF9 inh	FGF22 binding
-3	COc1cccc(NC(=O)N[C@H]2CC[C@H](CC(=O)N3CCN(C)CC3)O[C@@H]2CO)c1	-6	-1.5	-0.2	i
-7	COc1ccccc1C#Cc1ccc2c(c1)O[C@H](CN(C)C(C)=O)[C@@H](C)CN([C@H](C)CO)S2(=O)=O	-16	0.2	-1.2	i
-2	COc1ccc(NC(=O)Nc2ccc3c(c2)C(=O)N([C@@H](C)CO)C[C@@H](C)[C@H](CN(C)Cc2ccc(C(F)(F)F)cc2)OCCCC[C@@H](C)O3)cc1	1	5.9	-1.8	i
2	COc1ccc(NC(=O)Nc2cccc3c2O[C@H](CN(C)C(=O)Nc2c(C)noc2C)[C@H](C)CN([C@H](C)CO)C3=O)cc1	-1	-1.4	-1.0	i
-3	COc1cc(CN2CCC(C(=O)NC(c3ccc(F)cc3)c3ncccc3C)CC2)cc(OC)c1 (centres undefined)	-5	-0.7	7.5	i
5	COc1cccc(C2=CC(=O)CC(C)(C)C2=O)c1	8	0.0	-2.4	i
-1	COc1ncccc1C(=O)Nc1c(-c2ccccc2)[nH][nH]c1=O	-2	-2.9	-1.9	i
-58	COc1ccc2c3c([nH]c2c1)[C@@H](CO)N(C(=O)C1CCC1)CC31CN(Cc2cccc(F)c2)C1	-75	-16	13	i
0	COc1ccc2c3c(n(C)c2c1)[C@H](CO)N(C(=O)c1ccccc1)CC31CCN(C(C)=O)CC1	8	1.2	-0.6	i

Source: PubChem BioAssay
